Source: PubChem BioAssay (ICCB-Longwood Screening Facility, Harvard Medical School)
Polio RdRp inh: poliovirus RNA polymerase inhibition. P03300. poliovirus polymerase elongation, fluorescence polarization; active compounds read low. % elongation, % (compound at 16.7 µg/mL). 150,000 compounds, 0.66% hits; in the data active = % elongation below about 90%; note: some results filed as inactive read as strong as hits
Target sequence (P03300 1749-2209 limits assumed): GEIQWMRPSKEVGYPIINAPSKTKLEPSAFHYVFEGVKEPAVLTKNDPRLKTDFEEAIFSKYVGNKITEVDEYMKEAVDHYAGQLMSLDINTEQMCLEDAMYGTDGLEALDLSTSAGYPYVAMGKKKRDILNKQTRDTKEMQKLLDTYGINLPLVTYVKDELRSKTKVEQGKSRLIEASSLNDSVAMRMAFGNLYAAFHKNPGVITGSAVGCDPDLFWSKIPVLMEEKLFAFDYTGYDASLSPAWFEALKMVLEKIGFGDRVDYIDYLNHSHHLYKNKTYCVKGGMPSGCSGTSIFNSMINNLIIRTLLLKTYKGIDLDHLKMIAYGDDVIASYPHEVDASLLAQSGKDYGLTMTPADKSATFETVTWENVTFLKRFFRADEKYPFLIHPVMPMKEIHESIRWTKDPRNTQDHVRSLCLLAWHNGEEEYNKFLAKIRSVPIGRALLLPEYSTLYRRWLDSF
Polio RdRp inh intensity: second read-out of Polio RdRp inh, no call of its own (marks repeat the call); % elongation; measured here: total intensity read-out; formula for this scale not given here;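 total fluorescence in place of polarization; lower means less elongation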
An asterisk follows results filed as active. A portion of the library; rates above refer to the full screens.

Value order: Polio RdRp inh intensity | Polio RdRp inh
COc1ccccc1N1CCN(c2ncc3c(n2)CCN(Cc2ccccc2F)C3)CC1
    106 | 102
Cc1ccc2nc(-c3cccc(NC(=O)c4cccc5ccccc45)c3)oc2c1
    113 | 104
CCOc1cccc(C(=O)Nc2cc(-c3ccc(C)cc3)no2)c1
    106 | 100
NS(=O)(=O)c1ccc(CCNc2ncnc3c2cnn3-c2cccc(Cl)c2)cc1
    114 | 107
CC(C)c1ccc(NC(=O)c2cnn3c(C(F)F)cc(-c4ccccc4)nc23)cc1
    103 | 100
Cc1ccc(OCC(=O)Nc2ccc(Cl)cc2C(=O)c2ccccc2)c(Br)c1
    115 | 108
CCC(=O)N1CCc2cc(Br)cc(S(=O)(=O)N3CCC(C(=O)Nc4ccc(OC)cc4)CC3)c21
    73 | 99
O=C(Cn1c(SCC(=O)Nc2ccc(F)cc2)nc2ccccc21)NCc1ccccc1Cl
    113 | 109
COc1ccc(C(=O)Oc2cc(-c3ccc4c(c3)OCO4)cc(=O)c3c(C)oc(C)c23)cc1
    120 | 119
COc1ccc(-c2nc3n(n2)C(c2ccc(OC)c(OC)c2)C(C(=O)Nc2cccnc2)=C(C)N3)cc1 (stereo not given)
    104 | 103

Remaining list, next part
Value order: Polio RdRp inh intensity | Polio RdRp inh
O=C(CN(CCc1ccccc1)S(=O)(=O)c1ccccc1)NCc1ccc(Cl)cc1
    112 | 108
Cc1c(C(=O)NCc2ccccc2)sc2nc[nH]c(=O)c12
    109 | 110
CC(=O)c1ccc(S(=O)(=O)Nc2ccc(-c3cn4c(C)csc4n3)cc2)cc1
    116 | 109
COc1ccc(Cn2ccc3nc(C)c(C(=O)Nc4ccc(OC(F)(F)F)cc4)cc3c2=O)cc1
    103 | 102
Cc1ccc(C)c(NC(=O)CSc2ccc3nc(-c4ccccc4)cn3n2)c1
    98 | 108
CCOC(=O)c1cnc2c(C)cccc2c1Nc1ccc(OC(C)C)cc1
    96 | 106
COC(=O)c1cc2sc(Cl)cc2n1Cc1nc(-c2ccccc2F)oc1C
    105 | 107
COc1ccc(CNc2cc(-c3ccc(OC)cc3)nc3nncn23)cc1
    109 | 104
O=C(CSc1ncc2c(n1)-c1ccccc1N(Cc1ccc(F)cc1)S2(=O)=O)NCc1ccccc1
    115 | 112
CCOc1ccc(S(=O)(=O)c2cn(Cc3ccccc3)c3ccc(OCC)cc3c2=O)cc1
    104 | 102

(cont.)
Value order: Polio RdRp inh intensity | Polio RdRp inh
COc1ccc(NC(=O)c2cc(S(=O)(=O)N3CCCC(C)C3)cn2C)c(OC)c1 (stereo not given)
    108 | 108
CCCN1C(=O)C(O)(CC(=O)c2ccc(OC)c(OC)c2)c2ccccc21 (stereo not given)
    113 | 114
Cc1cccc(CC(=O)NCc2nc3cccnc3n2Cc2ccc(F)cc2)c1
    106 | 102
CCN(CC)c1sc(S(=O)(=O)c2ccccc2)nc1S(=O)(=O)c1ccc(C)cc1
    112 | 110
COc1ccc(-n2c(-c3ccc(F)cc3)cn3c4c(=O)n(C)c(=O)n(C)c4nc23)cc1
    111 | 109
COc1ccc(-c2cc3c(=O)n(CC(=O)Nc4ccccc4C(F)(F)F)ccn3n2)cc1OC
    111 | 108
O=C(NC1CC(=O)N(c2ccc(F)cc2)C1)C1CC1 (stereo not given)
    107 | 102
CCOC(=O)c1cc(-c2ccc(OC)c(S(=O)(=O)N3CCN(c4ccccc4)CC3)c2)on1
    113 | 109
CCCCN(C)CCCNC(=O)CN1C(=O)CSc2ccc(S(=O)(=O)N3CCOCC3)cc21
    110 | 110
CCOc1ccc(NC(=O)CS(=O)(=O)Cc2nc(-c3ccc(C)cc3)oc2C)cc1
    110 | 110

Following part:
Value order: Polio RdRp inh intensity | Polio RdRp inh
COc1ccc(-n2ncc3c2ncn2nc(Cc4ccccc4)nc32)cc1
    117 | 117
COC(=O)c1cc2occc2n1Cc1nc(-c2ccc(Cl)cc2)oc1C
    112 | 111
COc1ccc(/C=C\c2onc(C)c2S(=O)(=O)N2CCC(C(=O)Nc3ccc(C)cc3C)CC2)cc1
    107 | 107
Cc1ccc(CNC(=O)c2cnc3c(-c4ccc(F)cc4)c(C)nn3c2C)o1
    118 | 109
COc1ccc(Cn2ccc3nc(C)c(C(=O)NCc4ccc(C)cc4)cc3c2=O)cc1
    112 | 109
O=C(Nc1ccc(Cl)cc1)N1CCC(CN2CCCC2)CC1
    108 | 109
Cc1ccc(NC(=O)C(=O)NCC(c2cccnc2)N2CCN(C)CC2)cc1F (stereo not given)
    113 | 108
Cc1c2cnn(-c3ccccc3)c(=O)c2c(C)n1CCCC(=O)Nc1ccc(F)cc1F
    106 | 103
COc1cc(NS(=O)(=O)c2ccc(NC(=O)c3ccc(Cl)cc3Cl)cc2)nc(OC)n1
    110 | 104
O=C(NC1CC(=O)N(c2ccccc2)C1)C1CCCC1 (stereo not given)
    98 | 106

Next entries follow.
Value order: Polio RdRp inh intensity | Polio RdRp inh
COc1ccc(Cl)cc1NC(=O)[C@H]1O[C@@H]2OC(C)(C)O[C@@H]2[C@H]2OC(C)(C)O[C@H]21
    107 | 107
COc1ccc(S(=O)(=O)N2CCN(Cc3ccc4c(c3)OCO4)CC2)cc1C
    112 | 108
CCOc1ccc(S(=O)(=O)Nc2ccc3c(c2)CCCN3S(=O)(=O)c2ccc(C)cc2)cc1
    100 | 105
COc1ccc(NC(=O)CCCc2nnc3n(CCC(C)C)c(=O)c4sccc4n23)c(OC)c1
    120 | 117
CC(=O)c1cccc(NC(=O)[C@H]2O[C@@H]3OC(C)(C)O[C@@H]3[C@H]3OC(C)(C)O[C@H]32)c1
    104 | 105
COc1ccc(CNC(=O)C2CCN(S(=O)(=O)c3ccc(F)cc3)CC2)cc1
    108 | 107
CCOc1ccc(N(C(=O)c2ccc(Cl)cc2)S(=O)(=O)c2ccc3c(c2)n(C)c(=O)n3C)cc1
    107 | 100
CCCCc1nn2c(=O)cc(COC(=O)c3ccccc3C)nc2s1
    111 | 104
O=C(CN1C(=O)COc2ccc(S(=O)(=O)N3CCCCC3)cc21)NCc1ccc(F)cc1
    110 | 104
COc1ccc(NC(=O)Cc2noc3ccc(C)cc23)cc1Cl
    106 | 108

Later entries.
Value order: Polio RdRp inh intensity | Polio RdRp inh
Cc1ccccc1OCCn1c(=N)n(C(C)C)c2ccccc21
    108 | 104
O=C(c1ccccc1)n1nc(-c2ccco2)nc1NCc1cccs1
    103 | 108
CCOC(=O)C1CCCN(C(=O)c2c(C)nn(-c3ccc(F)cc3)c2-n2cccc2)C1 (stereo not given)
    96 | 110
COC(=O)c1ccc2c(c1)N(CC(=O)Nc1ccc(C)cc1Cl)C(=O)c1ccccc1S2
    118 | 107
Cc1ccc(C(=O)Oc2cc(-c3ccc4c(c3)OCO4)cc(=O)c3c(C)oc(C)c23)cc1
    101 | 110
CCC1CN(C(=O)N2CCC(C(=O)N(C)Cc3ccccc3)CC2)c2ccccc2O1 (stereo not given)
    105 | 105
COc1cc2ccccc2cc1C(=O)N1CCN(c2nc3c(C)cc(C)cc3s2)CC1
    110 | 112
COc1ccc(S(=O)(=O)c2c(Nc3cccc(Cl)c3)sc(C(=O)c3ccccc3)c2N)cc1
    111 | 106
COc1ccc(CNCCSc2nnnn2-c2ccccc2)cc1
    106 | 106
CC(C)NC(=O)C1CCCN(c2ncnc3onc(-c4ccc(F)cc4)c23)C1 (stereo not given)
    105 | 104

(continued)
Value order: Polio RdRp inh intensity | Polio RdRp inh
CCc1ccc(CNC(=O)c2cnc3sc(N4CCOCC4)nn3c2=O)cc1
    112 | 109
Cc1ccc(CN(C(=O)COc2ccc(Br)cc2)c2ccccn2)o1
    99 | 109
COc1ccc(-c2c(C)c3ccc(O)c(CN4CCCC4)c3oc2=O)cc1OC
    97 | 109
COc1cc(-c2noc(CSc3nc(-c4ccc(F)cc4)cc(=O)[nH]3)n2)cc(OC)c1OC
    108 | 105
Cc1ccccc1NC(=O)c1cc2c(-c3ccccc3)nn(-c3ccccc3)c2s1
    109 | 107
Cc1cccc(OCCCCn2c(C3CC(=O)N(c4ccc(C)cc4C)C3)nc3ccccc32)c1 (stereo not given)
    101 | 99
CCc1ccccc1NC(=O)c1cccn(Cc2ccccc2F)c1=O
    117 | 112
COc1ccc(NC(=O)CSc2nncn3c2cc2occc23)c(OC)c1
    110 | 107
CCc1ccccc1Nc1nn2c(=O)c3ccc(C(=O)NCCCOC(C)C)cc3nc2s1
    102 | 100
CC(=O)Nc1ccc(Nc2ccc3cc(S(=O)(=O)N4CCCCC4)ccc3n2)cc1
    106 | 102

Pulled by compound from the list above (2):
Value order: Polio RdRp inh intensity | Polio RdRp inh
CCc1ccccc1NC(=O)c1cccn(Cc2ccccc2F)c1=O
    117 | 112
CCc1ccc(CNC(=O)c2cnc3sc(N4CCOCC4)nn3c2=O)cc1
    112 | 109

Remaining list, next part
Value order: Polio RdRp inh intensity | Polio RdRp inh
O=C(NCCCCc1ccccc1)c1nn(-c2ccccc2F)nc1CO
    107 | 103
COc1cccc(NC(=O)c2cc3c(-c4ccc(Cl)cc4)nn(C)c3s2)c1
    96 | 103
CCOc1ccc(CNC(=O)C2CCCN(c3nnc(C)c4c(C)n(-c5ccccc5)nc34)C2)cc1 (stereo not given)
    105 | 103
CC1=Nc2cc(C(=O)NCCc3ccccc3)ccc2Sc2c(C)ccc(C)c21
    113 | 107
Cc1ccc2c(c1)-c1c(cnn1CC(=O)Nc1ccccc1C#N)CO2
    104 | 109
O=C(Nc1c(C(=O)N2CCN(c3ccccc3F)CC2)oc2ccccc12)c1ccccc1F
    113 | 107
CCOc1ccc(N(C)C(CNS(=O)(=O)c2ccccc2)c2ccccc2)cc1 (stereo not given)
    110 | 111
Cc1cccc(N2CCN(C(=O)c3ccc4c(c3)CCN4S(=O)(=O)c3ccccc3)CC2)c1C
    109 | 110
Cc1ccc(C)c(Cn2c(=O)n(Cc3ccccc3)c(=O)c3c(C)c(C)sc32)c1
    113 | 111
COc1ccc(NS(=O)(=O)c2ccc3c(c2)oc(=O)n3C)cc1Cl
    112 | 104

Next part
Value order: Polio RdRp inh intensity | Polio RdRp inh
Cc1nc2c(-c3ccccc3)c(C)nn2c(C)c1CCC(=O)N1CCN(c2ccc(F)cc2)CC1
    110 | 108
C=Cc1ccc(Cn2c(=O)cc(C)c3c(C)nn(C)c32)cc1
    106 | 116
CCN1CCC(N(Cc2ccc(F)cc2)C(=O)Nc2cc(Cl)ccc2C(=O)OC)CC1
    113 | 115
Cn1c(C(=O)NCCc2ccccc2)cc2cc(S(=O)(=O)N3CCCCC3)ccc21
    114 | 111
O=C(NCCOCCn1c(=O)oc2ccccc21)Nc1ccc(F)cc1F
    111 | 106
COc1ccccc1N1CCN(c2ncc3c(n2)CCN(Cc2ccccc2C)C3)CC1
    115 | 109
CC1CCN(c2ccc(-c3nc(-c4ccccc4)no3)cc2[N+](=O)[O-])CC1
    99 | 104
Cc1c(NC(=O)Nc2ccccc2C(F)(F)F)c(=O)n(-c2ccccc2)n1C
    106 | 104
CCOc1ccc(CNC(=O)c2cnc3c(C)cccn3c2=O)cc1
    102 | 109
Cc1cc(C)c(NS(=O)(=O)c2ccc3c(c2)NC(=O)CCS3)c(C)c1
    108 | 113

The list continues.
Value order: Polio RdRp inh intensity | Polio RdRp inh
CC1Cc2ccccc2N1S(=O)(=O)c1nnc(NC(=O)c2cccc(F)c2)s1 (stereo not given)
    114 | 108
O=C(NCCS(=O)(=O)N1CCN(c2ccccc2)CC1)C(c1ccccc1)c1ccccc1
    107 | 110
CCOC(=O)c1c(NC(=O)c2cc3ccccc3c(=O)o2)sc2c1CCC(C(C)(C)C)C2 (stereo not given)
    104 | 102
COC(=O)c1ccc(OC)c(Cn2c(=O)n(-c3cccc(Cl)c3)c(=O)c3c2c2cc(C)ccc2n3C)c1
    104 | 104
COc1ccc(-c2noc(CSc3nnc(Cc4ccccc4)n3-c3cccc(C)c3)n2)cc1
    108 | 108
Cn1c(=O)c2c(c3ccccc31)OC(=O)CC2c1cccc(Cl)c1 (stereo not given)
    80 | 102
COc1ccc(N2CCN(c3oc(/C=C/c4cccc(OC)c4)nc3C#N)CC2)cc1
    109 | 106
COc1ccccc1N1CCN(C(=O)Cn2ncc3c(=O)oc4ccccc4c32)CC1
    110 | 108
CCOC(=O)c1cc(-c2ccccc2)n(CCC(=O)Nc2ccc(Cl)c(C(F)(F)F)c2)c1C
    104 | 100
CN(C(=O)CC(=O)Nc1ccc2nc3n(c(=O)c2c1)CCCCC3)c1ccccc1F
    106 | 105

Complete entries from above. Screens in order: Polio RdRp inh intensity	Polio RdRp inh
CCOC(=O)c1cc(-c2ccccc2)n(CCC(=O)Nc2ccc(Cl)c(C(F)(F)F)c2)c1C is listed as 104	100
CN(C(=O)CC(=O)Nc1ccc2nc3n(c(=O)c2c1)CCCCC3)c1ccccc1F is listed as 106	105
CC1Cc2ccccc2N1S(=O)(=O)c1nnc(NC(=O)c2cccc(F)c2)s1 (stereo not given) is listed as 114	108
O=C(NCCS(=O)(=O)N1CCN(c2ccccc2)CC1)C(c1ccccc1)c1ccccc1 is listed as 107	110
COc1ccccc1N1CCN(C(=O)Cn2ncc3c(=O)oc4ccccc4c32)CC1 is listed as 110	108

Next part.
Value order: Polio RdRp inh intensity | Polio RdRp inh
COc1cccc(CNC(=O)c2nnc(Cc3ccc(Cl)cc3)o2)c1
    109 | 108
CCOC(=O)C1=C(CN2CCC(C)CC2)NC(=O)NC1c1ccc(OC(C)C)cc1 (stereo not given)
    109 | 109
Cc1cc(C)cc(Nc2cc(C(=O)NC3CCCCC3)c3ccccc3n2)c1
    106 | 106
COc1cccc(CNC(=O)Cn2c(=O)ccc3cc(S(=O)(=O)N4CCC(C)CC4)ccc32)c1
    114 | 107
Cc1cccc(NC(=O)CSc2nc(C3CCCC3)nc3c2c(=O)n(C)c(=O)n3C)c1C
    109 | 105
CCOc1ccc(-c2nc(SCC(=O)Nc3cc(F)ccc3F)n3[nH]c(=O)cc3n2)cc1
    111 | 103
